A1 inh = inhibitors of A1 | AID 2241 | caspase activation, % (no concentration beside the values) | hit rate 0.51% among 21,000 | MEF A1-2A-BIM cells, caspase-Glo luminescence, 3 h; percent of clofoctol signal, DMSO as zero;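 active = most replicate scores above 10, or exactly half above 10 with mean activity above 10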;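 also: effector caspase 3 and 7 activity cleaving a DEVD luciferin substrate; 50 nL library stock added to about 30 µL; numbers are from one replicate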
BJeLR viability = BJeLR cell viability reduction | BJeLR fibroblasts viability, CellTiterGlo ATP luminescence, 48 h; HRASV12, hTERT and SV40 LT/ST transformed | viability loss activity score, % (test concentration not listed) | hit rate 0.64% among 30,000 | AID 2275; in the data active = viability loss activity score above about 50%; about a fifth of its hits are not listed in these tables;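 also: higher score means fewer live cells and less ATP luminescence; stock transfer was 50 or 100 nL into about 30 µL; 0% = vehicle wells and 100% = a reference killing control; one replicate is shown; the record names a cut of 85%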
The depositor's hits bear a star; x = no result given; & = joins results of further samples. This is a subset, so the mix of outcomes need not match the whole.

SMILES | A1 inh | BJeLR viability
COc1ccc(CN(C)C[C@@H]2Oc3ccc(NC(=O)CCC(F)(F)F)cc3C(=O)N([C@H](C)CO)C[C@H]2C)cc1 | -0.7 | -1.8
COc1ccc(-n2nc3ccc(NC(=O)c4ccc(-c5ccccc5)cc4)cc3n2)cc1 | -0.9 | -4.5
O=C1S/C(=C/c2ccccc2Cl)C(=O)N1c1ccccc1 | -2.5 | -0.6
COc1ccc(NC(=O)N(C)C[C@H]2Oc3ccc(NC(=O)CCCN(C)C)cc3C(=O)N([C@@H](C)CO)C[C@@H]2C)cc1 | -0.3 | -0.1
NC(=O)C1CCCN(C(=O)NC2CCCCC2)C1 (stereo unspecified) | x | 2.4
CCCN(CCC)S(=O)(=O)c1ccc(F)c(C(=O)Nc2cc(C)ccc2OC)c1 | 0.3 | 3.2
CCOC(=O)C1CCN(c2cc(C(F)(F)F)nc3ccc(C)cc23)CC1 | -0.6 | -3.8
Cc1ncc(CO)c(/C=N/O)c1O | -0.3 | -2.4
Cc1cc(C)c(N=C(NN)N(C)C)cc1C | -0.1 | 3.1
CC(=O)Oc1ccc2c(=O)c(-c3ccccc3)c(C(F)(F)F)oc2c1 | x | 0.4
O=C(Oc1ccc(Cl)cc1)c1c(-c2ccccc2)nnc2ccccc12 | 0.0 | 19.0
O=C(Nc1ccc(F)cc1F)c1cccnc1Sc1cccs1 | 0.0 | -3.5
CCC1(CC)Cc2ccccc2-c2nc(-c3ccccc3)oc(=O)c21 | -0.1 | 0.9
C[C@@H]1CN([C@H](C)CO)C(=O)c2cc(NC(=O)CCN3CCOCC3)ccc2O[C@H]1CN(C)C(=O)Nc1cccc2ccccc12 | 0.9 | -1.4
CCOC(=O)c1sc2nc(C)nc(N(C)Cc3ccccc3)c2c1C | -0.3 | -0.9
Cc1ncoc1C(=O)Nc1ccccc1F | -4.8 | 3.9
O=C(c1ccc(Cl)cc1)N1CCc2c([nH]c3ccccc23)C1C(F)(F)F (stereo unspecified) | -0.5 | -4.2
CC(=O)Oc1ccc2c(=O)c(-c3nc4ccccc4n3C)c(C)oc2c1 | 0.0 | 0.0
C=CCn1c(SCC(=O)c2ccc(CC)cc2)nnc1-c1cccc(OC)c1 | 0.1 | -2.1
Cc1noc(C)c1NC(=O)N(C)C[C@@H]1Oc2c(NC(=O)Nc3cccc4ccccc34)cccc2C(=O)N([C@@H](C)CO)C[C@@H]1C | x | 0.1
C[C@@H]1CN([C@@H](C)CO)C(=O)c2cccc(NC(=O)c3ccc(-c4nccs4)cc3)c2O[C@@H]1CN(C)C(=O)Nc1ccc(C(F)(F)F)cc1 | x | -5.2
CCN(/C=C/C(=O)c1ccccc1O)CC | -6.2 | -0.7
O=C(Cn1cnc2c(nnn2Cc2ccc(Cl)cc2)c1=O)NC1CCCCC1 | 0.6 | -5.2
CN1C=C(c2ccccc2)N(c2ccccc2)C1 | -0.3 | -2.4
Cc1cc(C(=O)Nc2cccc3c2O[C@H](CN(C)C(=O)Nc2cccc4ccccc24)[C@H](C)CN([C@H](C)CO)C3=O)n(C)n1 | x | 2.8
Cc1cccc(Cn2c(SCc3ccc(C(=O)NCCN4CCCC4)cc3)nc3ccncc32)c1 | 0.3 | -2.6
COc1ccc(CCNC(=O)CSc2nc3ccccc3nc2N2CCCC2)cc1OC | 0.8 | -4.6
C[C@H](CO)N1C[C@H](C)[C@@H](CN(C)C(=O)Nc2cccc3ccccc23)Oc2c(NS(=O)(=O)c3cccs3)cccc2C1=O | x | 1.6
COc1ccc(/C=C/C(=O)NCCN=C2NS(=O)(=O)c3ccccc32)cc1 | x | -5.5
Cn1c(=O)c2c(nc(S(C)(=O)=O)n2C)n(C)c1=O | 0.6 | -2.1
O=C(O)c1cccnc1SC1CC(=O)N(Cc2ccccc2)C1=O (stereo unspecified) | 0.4 | 2.7
Cc1ccc2[nH]cc(CCNC(=O)c3ccccc3)c2c1 | x | 4.7
COC(=O)C1=C(C)N(c2ccc(OC)cc2)C(C)=C(C(=O)OC)C1c1ccccc1 | -0.2 | 2.1
C[C@H](CO)N1C[C@H](C)[C@@H](CN(C)S(=O)(=O)c2ccc(Cl)cc2)Oc2c(NC(=O)c3ccc(-c4nccs4)cc3)cccc2C1=O | x | -1.9
CCCC(=O)Nc1ccc(-c2nc3cc(C(C)C)ccc3o2)cc1 | -0.5 | 10.3
COC(=O)C1=C(C)N(c2ccccc2)/C(=C/c2cccs2)C1=O | 0.2 | -3.3
C[C@@H]1CN([C@@H](C)CO)C(=O)c2cccc(NC(=O)c3ccncc3)c2O[C@H]1CN(C)Cc1ccc(C(F)(F)F)cc1 | x | 0.1
COc1ccc(C2CC(=O)c3c(O)cc(O[C@@H]4O[C@H](CO[C@@H]5O[C@@H](C)[C@H](O)[C@@H](O)[C@H]5O)[C@@H](O)[C@H](O)[C@H]4O)cc3O2)cc1 (stereo partly specified) | 0.9 | 5.9
C[C@@H]1CN([C@H](C)CO)C(=O)c2cccc(NC(=O)Nc3ccc(F)cc3)c2O[C@@H]1CN(C)S(=O)(=O)c1cn(C)cn1 | x | 0.8
CCCc1nc2c([nH]1)C(c1cccc(O)c1)C(C#N)=C(N)O2 (stereo unspecified) | 0.8 | -5.3
C[C@@H]1CN([C@H](C)CO)C(=O)c2cc(NC(=O)CCN3CCOCC3)ccc2O[C@@H]1CN(C)S(=O)(=O)c1cccs1 | 0.5 | 5.5
Cc1cc(NC(=O)NN2CCOCC2)nn1-c1c(Cl)cccc1Cl | 0.2 | 10.2
CCOc1cc(N2CCOCC2)c(OCC)cc1NS(=O)(=O)CC | 0.8 | 0.1
Cc1noc(C)c1S(=O)(=O)Nc1ccc2c(c1)C(=O)N([C@H](C)CO)C[C@H](C)[C@H](CN(C)Cc1ccc(C(=O)O)cc1)O2 | 0.3 | -1.9
CC(C)NC(=O)N(C)C[C@@H]1Oc2c(cccc2N(C)C)C(=O)N([C@H](C)CO)C[C@@H]1C | x | 2.8
O=C1/C(=C/c2cccc(Br)c2)SC(=S)N1CC(=O)N1CCCc2ccccc21 | 0.4 | -6.3
CCN(CC)c1cc(-c2cccs2)nc(SCC(=O)c2cccs2)c1C#N | -0.3 | 2.3
CC[N+]1(CC)Cc2cc3ccccc3cc2C1 | -0.2 | 4.2
CCNC(=O)c1ccc2c(c1)sc1nc(-c3ccc(OC)cc3)cn12 | 0.2 | -0.4
O=C(Nc1c(C(=O)c2ccccc2)oc2ccccc12)c1ccc(Cl)cc1 | x | 1.0
CC(C)(C)c1cn2cccc(OCc3ccc(Cl)c(Cl)c3)c2n1 | 0.1 | -4.4
CCCn1cc(SCC(=O)Nc2sc3c(c2C(=O)OCC)CCC3)c2ccccc21 | -0.9 | 4.4
C[C@@H]1CN([C@H](C)CO)C(=O)c2cccc(NC(=O)NC3CCCCC3)c2O[C@@H]1CN(C)C | x | 0.2
Cc1ccc(S(=O)(=O)N(C)C[C@H]2Oc3c(NC(=O)c4cnccn4)cccc3C(=O)N([C@@H](C)CO)C[C@@H]2C)cc1 | x | -0.2
N/C(=N/C(=O)N1CCOCC1)c1ccccc1 | -0.4 | 2.0
COc1ccc(S(=O)(=O)N(C)C[C@H]2Oc3ccc(NC(=O)Nc4ccc(F)cc4)cc3C(=O)N([C@@H](C)CO)C[C@H]2C)cc1 | 0.1 | -1.9
C[C@@H]1CN([C@H](C)CO)C(=O)c2cc(NC(=O)CCCCCC(=O)Nc3ccccc3N)ccc2O[C@@H]1CN(C)S(C)(=O)=O | x | 5.6
CC(C)c1ccc(C2C(C#N)=C(N)C(C#N)(C#N)C3=CCN(C)CC32)cc1 (stereo unspecified) | 0.1 | 4.1
COc1cc2nc(COc3ccccc3)oc(=O)c2cc1OC | -2.6 | -3.4
C[C@@H]1CN([C@H](C)CO)C(=O)c2cc(N(C)C)ccc2O[C@@H]1CN(C)C(=O)Nc1ccc(C(F)(F)F)cc1 | -0.4 | 10.0

Copied from the list:
CCNC(=O)c1ccc2c(c1)sc1nc(-c3ccc(OC)cc3)cn12 @ A1 inh = 0.2
CC[N+]1(CC)Cc2cc3ccccc3cc2C1 @ A1 inh = -0.2
O=C(Nc1c(C(=O)c2ccccc2)oc2ccccc12)c1ccc(Cl)cc1 @ BJeLR viability = 1.0
C[C@@H]1CN([C@H](C)CO)C(=O)c2cc(NC(=O)CCCCCC(=O)Nc3ccccc3N)ccc2O[C@@H]1CN(C)S(C)(=O)=O @ BJeLR viability = 5.6
COc1ccc(S(=O)(=O)N(C)C[C@H]2Oc3ccc(NC(=O)Nc4ccc(F)cc4)cc3C(=O)N([C@@H](C)CO)C[C@H]2C)cc1 @ BJeLR viability = -1.9
COc1cc2nc(COc3ccccc3)oc(=O)c2cc1OC @ A1 inh = -2.6

Other structures follow:
SMILES | A1 inh | BJeLR viability
C[C@H](CO)N1C[C@H](C)[C@@H](CN(C)S(=O)(=O)c2cn(C)cn2)Oc2ccc(NC(=O)NC3CCCCC3)cc2C1=O | 0.4 | -0.3
O=C(Nc1nc2ccccc2n1CCN1CCOCC1)C1CCCCC1 | 1.5 | 1.4
C[C@H](CO)N1C[C@H](C)[C@H](CN(C)CC2CCCCC2)Oc2ccc(NC(=O)Nc3ccc(F)cc3)cc2C1=O | 0.0 | -5.0
CC(=O)NC1C(=O)SC1(C)C (stereo unspecified) | 0.4 | 0.4
C[C@@H]1CN([C@@H](C)CO)C(=O)c2cccc(NS(=O)(=O)c3cccs3)c2O[C@H]1CN(C)C(=O)Nc1ccc2c(c1)OCO2 | x | -3.5
CC(C)NC(=O)N(C)C[C@@H]1Oc2c(NS(=O)(=O)c3cn(C)cn3)cccc2C(=O)N([C@H](C)CO)C[C@H]1C | x | -1.8
C[C@@H]1CN([C@@H](C)CO)C(=O)c2cc(NC(=O)Cc3cn(C)c4ccccc34)ccc2O[C@@H]1CN(C)S(=O)(=O)c1ccccc1 | 0.5 | -2.0
COc1ccc2c(C)nc(N/C(N)=N/S(=O)(=O)c3ccc(C)cc3)nc2c1 | -0.3 | 6.1
CN1CCCN(C(c2ccccc2)c2ccc(Cl)cc2)CC1 (stereo unspecified) | -0.1 | 4.1
Cc1ccc(S(=O)(=O)Nc2ccc3c(c2)C(=O)N([C@H](C)CO)C[C@@H](C)[C@H](CN(C)C(=O)Nc2ccccc2)O3)cc1 | -0.1 | -0.7
C[C@H]1CN([C@@H](C)CO)C(=O)c2cc(NS(=O)(=O)c3ccccc3)ccc2O[C@@H]1CN(C)C(=O)Nc1ccc(C(F)(F)F)cc1 | 0.0 | -11.8
C=C1C(=O)O[C@H]2C3=C(C)CCC[C@]3(C)C(=O)C[C@@H]12 | -0.9 | 52.7*
O=C(O)c1ccc(NC(CC(=O)c2ccc(Cl)cc2)c2ccccc2)cc1 (stereo unspecified) | -0.4 | 5.4
C[C@@H]1CN([C@@H](C)CO)C(=O)c2cccc(NS(C)(=O)=O)c2O[C@@H]1CN(C)Cc1ccc2c(c1)OCO2 | x | -4.0
N#Cc1ccccc1Cn1c(=O)n(CCCCC(=O)NCc2ccco2)c(=O)c2ccccc21 | x | 0.0

Compound profiles, from the list above. Values in the order: A1 inh | BJeLR viability
Shown for `C[C@@H]1CN([C@@H](C)CO)C(=O)c2cccc(NS(C)(=O)=O)c2O[C@@H]1CN(C)Cc1ccc2c(c1)OCO2` → x | -4.0
Shown for `O=C(O)c1ccc(NC(CC(=O)c2ccc(Cl)cc2)c2ccccc2)cc1` (stereo unspecified) → -0.4 | 5.4
Shown for `N#Cc1ccccc1Cn1c(=O)n(CCCCC(=O)NCc2ccco2)c(=O)c2ccccc21` → x | 0.0

Other results follow.
SMILES | A1 inh | BJeLR viability
C[C@H](CO)N1C[C@H](C)[C@H](CN(C)Cc2ccc(-c3ccccc3)cc2)Oc2ccc(NS(=O)(=O)c3ccccc3)cc2C1=O | 0.2 | -2.3
CC(C)NC(=O)N(C)C[C@H]1Oc2c(NC(=O)c3cnccn3)cccc2C(=O)N([C@H](C)CO)C[C@@H]1C | x | 1.1
C[C@@H]1CN([C@H](C)CO)C(=O)c2cc(NC(=O)Cc3ccccc3)ccc2O[C@H]1CN(C)C(=O)Nc1cccc2ccccc12 | -0.5 | -3.5
C[C@H]1CN([C@@H](C)CO)C(=O)c2cc(N(C)C)ccc2O[C@H]1CN(C)S(=O)(=O)c1ccccc1 | 0.5 | -1.1
O=C1C(=O)C(C2CCC(c3ccc(Cl)cc3)CC2)C(=O)c2ccccc21 (stereo unspecified) | -0.4&-0.7 | -1.0&8.5
Cc1ccc(S(=O)(=O)Nc2ccc3c(c2)C(=O)N([C@H](C)CO)C[C@H](C)[C@H](CN(C)Cc2ccc(Cl)c(Cl)c2)O3)cc1 | -0.2 | 2.3
C[C@@H]1CN([C@H](C)CO)C(=O)c2cccc(NC(=O)c3cnccn3)c2O[C@@H]1CN(C)C(=O)Nc1ccc(C(F)(F)F)cc1 | x | 1.4
C[C@@H]1CN([C@H](C)CO)C(=O)c2cccc(NC(=O)c3ccncc3)c2O[C@@H]1CN(C)S(=O)(=O)c1cn(C)cn1 | x | 3.8
Cc1csc2nc(CSc3ccc(Cl)cc3)c(Br)n12 | -2.7 | 4.3
C[C@H](CO)N1C[C@H](C)[C@H](CN(C)Cc2ccccc2)Oc2ccc(NC(=O)Nc3ccc(C(F)(F)F)cc3)cc2C1=O | 0.2 | 2.5
CCOc1cccc(/C=C2\SC(=S)N(CC)C2=O)c1O | -6.2 | 3.9
CNC[C@H]1Oc2ccc(NC(=O)Nc3ccc(F)cc3)cc2C(=O)N([C@H](C)CO)C[C@@H]1C | -0.3 | -3.4
CNC[C@H]1Oc2ccc(NC(=O)C3CCCCC3)cc2C(=O)N([C@@H](C)CO)C[C@@H]1C | 0.4 | 0.0
COc1ccc(NC(=O)Nc2cccc3c2O[C@H](CN(C)C(=O)Nc2c(C)noc2C)[C@H](C)CN([C@H](C)CO)C3=O)cc1 | x | -4.8

Structural class: the compounds so far with a furan ring, fused or not (2)
SMILES | A1 inh | BJeLR viability
O=C(Nc1c(C(=O)c2ccccc2)oc2ccccc12)c1ccc(Cl)cc1 | x | 1.0
N#Cc1ccccc1Cn1c(=O)n(CCCCC(=O)NCc2ccco2)c(=O)c2ccccc21 | x | 0.0

Source: PubChem (Broad Institute)
